# Screens as filed in PubChem.
# PABP FP inh = blocks human PABP binding to poly(A) RNA; P11940; fluorescence polarization; inhibition, % at 35 µM; hit rate 1% among 290,000;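 active = 50% or more with normal probe brightness, or confirmed in later tests; inconclusive = above 50% with abnormal brightness, or retests that disagree; inactive = below 50% or failed in later tests; about a fifth of its hits are not listed in these tables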;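 note: calls also rest on retests at 20 µM and on dose response follow-up; controls were probe without protein and protein plus probe with vehicle; some compounds called inactive have numbers as strong as hits; many hits fall short of the cut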
# Target sequence (P11940 whole entry, looked up): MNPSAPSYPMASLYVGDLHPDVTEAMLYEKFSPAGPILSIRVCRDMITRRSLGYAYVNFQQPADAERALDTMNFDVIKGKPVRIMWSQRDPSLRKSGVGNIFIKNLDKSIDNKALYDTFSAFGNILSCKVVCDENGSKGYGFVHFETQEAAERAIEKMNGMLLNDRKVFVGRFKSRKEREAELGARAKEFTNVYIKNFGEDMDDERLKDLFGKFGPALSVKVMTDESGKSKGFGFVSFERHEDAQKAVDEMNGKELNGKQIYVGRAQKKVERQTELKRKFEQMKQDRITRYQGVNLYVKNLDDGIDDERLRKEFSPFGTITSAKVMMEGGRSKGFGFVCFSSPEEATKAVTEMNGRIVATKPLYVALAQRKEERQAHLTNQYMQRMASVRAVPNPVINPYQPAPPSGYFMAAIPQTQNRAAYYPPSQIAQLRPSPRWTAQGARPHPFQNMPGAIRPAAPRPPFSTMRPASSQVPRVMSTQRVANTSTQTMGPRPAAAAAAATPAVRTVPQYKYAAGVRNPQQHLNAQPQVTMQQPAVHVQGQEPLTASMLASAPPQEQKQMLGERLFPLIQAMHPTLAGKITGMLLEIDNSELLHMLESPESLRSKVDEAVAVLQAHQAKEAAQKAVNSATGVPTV
# CSC inhib = blocks cancer stem cells; cancer stem cell-like cells viability, luminescence; inhibition, % at 7.5 µM; hit rate 1.1% among 300,000;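 active = mean at 75% or more and at least half the replicates too; inconclusive = mean and replicates disagree; tested in HMLE shEcad cells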;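 note: 0% = median of negative and 100% = median of positive control wells; the first replicate is given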
# eIF4H inh = inhibitors of RNA binding by human eIF4H; Q15056; eIF4H fluorescence polarization binding assay; inhibition, % at 35 µM; hit rate 0.94% among 290,000; AID 2012;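 active = 50% or more with normal probe brightness, or confirmed in later tests; inconclusive = above 50% with abnormal brightness, or retests that disagree; inactive = below 50% or failed in later tests; about a fifth of its hits are not listed in these tables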;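 note: calls also rest on retests at 20 µM and on dose response follow-up; 0% = protein and probe with vehicle and 100% = probe without protein; strong numbers were not always called active; many hits fall short of the cut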
# Rce1 inh = yeast Ras-converting enzyme inhibition; yeast membranes, quenched prenylated peptide cleavage fluorescence; hit rate 0.27% among 290,000; calls only; Q03530;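 active = fall in fluorescence gain of 50% or more versus controls, with final raw signal at or below 3038400; inconclusive = same 50% fall but final raw signal above 3038400; inactive = fall in fluorescence gain under 50%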;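 note: plate controls were neutral control wells for no effect and wells lacking membranes for full effect; tested at 10 µM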
# Target sequence (Q03530 whole entry, looked up): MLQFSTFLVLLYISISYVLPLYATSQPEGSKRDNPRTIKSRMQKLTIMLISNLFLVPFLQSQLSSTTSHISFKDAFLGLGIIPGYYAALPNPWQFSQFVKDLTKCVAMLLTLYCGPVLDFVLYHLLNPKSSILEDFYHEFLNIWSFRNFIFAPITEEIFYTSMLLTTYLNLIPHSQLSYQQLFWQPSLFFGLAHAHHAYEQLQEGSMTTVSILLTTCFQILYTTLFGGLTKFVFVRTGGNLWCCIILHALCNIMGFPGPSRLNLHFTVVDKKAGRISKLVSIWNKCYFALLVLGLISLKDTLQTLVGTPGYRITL
# Env fusion inh = HIV envelope-mediated fusion inhibition; HeLa-JRFL Env/CEM21 cell fusion, luciferase; inhibition, % at 12.3 µM; hit rate 1.1% among 360,000; AID 651610;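 active = mean replicate inhibition score of at least 50 and every replicate individually at or above 50; inconclusive = only one of the two criteria met; inactive = mean below 50 and not all replicates reaching 50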;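 note: 0% = plate neutral controls and 100% = maraviroc near 300 nM; one replicate is shown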
# MT1-MMP act inh = MT1-MMP (human) activation inhibition. P50281. HT1080 RFP-PRO-GFP cells, GFP/RFP ratio fluorescence, overnight; percent of plate control window, DMSO zero. GFP/RFP ratio change, % at 20 µM. hit rate 0.061% among 360,000. AID 651647;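 active = GFP/RFP ratio change of at least 30% with cell ATP level not reduced by more than half and red fluorescence within 50% of control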; note: strong numbers were not always called active
#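 system = RFP-PRO-GFP reporter HT1080 cells | dosing = 20 µM single dose, 1% DMSO | timing = overnight cell settling, then overnight compound exposure, 37 °C, 5% CO2 | read-out basis = GFP/RFP fluorescence ratio | controls = DMSO and RFP-L50D-GFP cell wells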
# Yeast UUG start = yeast start codon fidelity modulation; activity score, % at 18.7 µM; hit rate 0.13% among 350,000; S. cerevisiae UUG-firefly luciferase reporter, luminescence/redox ratio; AID 602363;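 active = replicate mean at a twofold rise or more, about +100% in these data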;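 note: firefly luciferase made from a UUG start codon reports start codon fidelity; reporter light over untreated wells divided by growth signal over untreated wells; some hits fall short of that in this replicate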
# eIF4H inh retest = also measured in eIF4H inh; calls as there; inhibition, %; compound at 20 µM; confirmation average;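 mean of two retest wells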
# PABP FP inh retest = recorded beside PABP FP inh, whose call it bears; inhibition, %; compound at 20 µM; confirmation repeats;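 mean of two retest wells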
# MT1-MMP act inh RFP = also measured in MT1-MMP act inh; calls as there; RFP signal change, %; measured here: RFP expression control read;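 0 = vehicle wells; hits needed this value within 50% of zero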
# Starred values were filed as active, the others as inactive; i = inactive; ? = inconclusive; · = no result given. The list is partial; count on the stated rates, not on these rows.
SMILES,PABP FP inh,CSC inhib,eIF4H inh,Rce1 inh,Env fusion inh,MT1-MMP act inh,MT1-MMP act inh RFP,Yeast UUG start,others
C=C(C)c1cccc(C(C)(C)NC(=O)N2CC(C)OC(C)C2)c1 (stereo not drawn),4.5,-10.3,12.6,i,·,5.7,0.0,-13.3,
O=C(CCS(=O)(=O)c1ccc(Cl)cc1)Nc1ccc(N2CCOCC2)cc1,2.8,-11.8,-18.6,i,-18.4,3.1,-2.3,-4.8,
O=C(NC1CCN(Cc2ccccc2)CC1)C(NS(=O)(=O)c1cccc2nsnc12)c1ccccc1 (stereo not drawn),-8.7,-11.7,-3.7,i,-2.2,-1.2,-1.8,·,
COc1cccc(/C=C/C(=O)OCC(=O)N2c3ccccc3CC2C)c1OC (stereo not drawn),·,·,·,·,-4.9,-0.4,-1.6,0.7,
CCc1ccccc1NC(=O)CSc1n[nH]c(-c2cccnc2)n1,-2.1,-7.7,-3.3,i,2.1,-1.8,0.8,·,
COc1ccc(C(CCN)Cc2ccccc2)cc1 (stereo not drawn),-1.2,-5.1,-5.7,i,6.7,-2.5,3.4,·,
O=[N+]([O-])c1ccc(OCCn2cnc3ccccc32)cc1,-10.8,-4.4,-2.6,i,-12.9,1.7,-2.0,·,
N#Cc1cccc(-c2cn(S(=O)(=O)c3ccc(Cl)cc3)nc2N)c1,-10.5,4.8,0.6,i,·,2.5,-12.8,-9.6,
ON=C1c2cc(OCCN3CCCCC3)ccc2-c2ccc(OCCN3CCCCC3)cc21,37.2,-14.8,-14.2,i,·,3.4,-4.8,9.0,
Cc1cccc(NS(=O)(=O)c2cc3c4c(c2)C(C)C(=O)N4CCC3)c1 (stereo not drawn),·,-6.5,·,i,2.9,-2.6,-8.5,-4.3,
CCCOc1ccc(C(=O)Nc2ccc(N3CCN(C(C)=O)CC3)cc2)cc1,5.5,-3.5,-4.1,i,-11.1,4.3,0.8,-8.4,
CCN(CC)C(=O)COc1cc(C)c(Cl)c(C)c1,2.6,-4.4,8.7,i,·,2.4,2.7,-19.6,
COc1ccc(-c2nnc3n2N=C(C)CS3)cc1,-2.0,-16.3,-6.0,i,-96.2,1.9,5.4,-20.6,
O=C(OCC(=O)N1CCCC1)c1ccccc1O,-7.4,·,-11.3,i,-37.5,4.9,5.3,-25.4,
COc1c(C)cc(Br)cc1C(=O)Nc1ccc(N2CCN(S(C)(=O)=O)CC2)cc1,5.9,-4.5,3.8,i,-45.2,-1.6,-1.2,6.9,
COc1ccc([N+](=O)[O-])cc1N(CC(=O)N1CCN(Cc2ccccc2)CC1)S(C)(=O)=O,-1.4,-5.4,0.1,i,6.6,2.2,3.8,-5.3,
COC(=O)Cn1c(C)c(C(C)=O)c(C(C)=O)c1C,-13.3,-2.3,-3.2,i,·,0.1,2.7,-12.0,
Cc1c([N+](=O)[O-])cnc(Sc2ccccc2)c1[N+](=O)[O-],·,33.2,·,i,9.8,-6.4,-7.7,-30.0,
CC1CC(C)CN(S(=O)(=O)c2ccc(C(C)(C)C)cc2)C1 (stereo not drawn),79.6*,-8.3,5.0,i,14.3,-6.6,-4.2,·,
Cc1ccc(CS(=O)Cc2ccc(C(=O)NCCc3ccccc3)o2)cc1 (stereo not drawn),-2.0,-1.1,-10.3,i,-1.5,1.7,0.9,-4.5,
CS(=O)(=O)c1cccc(C(=O)OCC(=O)NC(=O)Nc2ccccc2F)c1,·,0.9,·,·,4.5,1.1,0.0,4.6,
COc1cccc(C(=O)NCCS(=O)(=O)N2CCCCC2)c1,·,-12.3,·,i,5.9,-2.0,1.2,-1.3,
O=[N+]([O-])c1nn(-c2ccc3c(c2)OCCO3)n(O)c1=NCc1ccccc1Cl,?,4.9,?,i,·,-2.1,-6.8,-10.7,
COCCCn1c(SCC(=O)c2ccccc2)nc2ccccc2c1=O,-4.8,1.6,-8.1,i,-0.3,-5.1,-5.1,·,
Cc1ccnc(NS(=O)(=O)c2cccc([N+](=O)[O-])c2)c1,2.5,-17.1,-7.3,i,15.1,5.1,5.7,-3.6,

# (more compounds)
SMILES,PABP FP inh,CSC inhib,eIF4H inh,Rce1 inh,Env fusion inh,MT1-MMP act inh,MT1-MMP act inh RFP,Yeast UUG start,others
Nc1nonc1-n1nnc(C(=O)N/N=C/c2ccoc2)c1-c1ccccc1,-3.3,-0.3,-9.8,i,4.4,3.5,7.1,-8.6,
O=S(=O)(NC1CC(NS(=O)(=O)OCC(Cl)(Cl)Cl)C2CCCCC12)OCC(Cl)(Cl)Cl (stereo not drawn),21.6,83.4*,-3.3,i,·,-3.8,2.0,-13.6,
CC(NC(=O)COC(=O)C1=NN(c2ccccc2)C(=O)CC1)c1ccccc1 (stereo not drawn),·,·,·,·,-26.2,2.0,3.3,-14.3,
CCn1nnc(NC(=O)c2cccc(-c3cc4ccccc4oc3=O)c2)n1,1.7,1.0,5.0,i,-19.9,-3.0,-3.7,4.8,
CC(=O)C1CCC2C3CCC4=CC(=O)CC[C@]4(C)[C@@]3(F)C(O)C[C@]12C (stereo partly drawn),2.1,3.3,1.9,i,-133.6,1.3,2.8,-15.0,
CC1(C)CC(=O)C(C=NCCc2ccc(O)cc2)=C(O)C1,-1.1,-8.7,9.7,·,·,2.4,0.1,-3.0,
CN(C)CCn1c(=O)n(-c2cccc(Cl)c2)c(=O)c2c3c(sc21)CCCCC3,-2.6,2.7,-4.0,i,130.1*,-1.0,2.0,·,
O=C(CSc1nnc(CNC(=O)c2c(F)cccc2F)o1)NCc1ccco1,23.1,-6.2,30.1,i,·,1.8,3.7,-8.9,
CCOC(=O)C1CCN(C(=O)c2cc3c(s2)-c2ccccc2OC3)CC1,-6.6,-12.4,-3.6,i,-46.6,-0.2,4.2,7.8,
CC1(C(=O)N2CC3(CC(c4ccccc4)=NO3)C[C@H]2C(=O)NCC(N)=O)CC1 (stereo partly drawn),5.7,-18.9,6.6,i,2.5,-1.4,3.3,-13.8,
Cn1nc(C(F)(F)F)c(-c2ccccc2)c1NC(=O)c1ccco1,1.9,2.5,-4.9,i,13.0,3.4,-1.4,·,
O=C(NCc1ccco1)c1nc2ccccc2s1,5.0,-4.4,-3.9,i,·,-1.5,-3.0,-11.4,
COc1ccc(S(=O)(=O)Nc2nnc(Cc3ccc(OC)c(OC)c3)s2)cc1,4.2,-5.5,-5.8,i,-4.4,2.6,1.4,-11.0,
O=C1CC(N2CCN(Cc3ccccc3)CC2)C(=O)N1 (stereo not drawn),-10.2,-11.9,-6.5,i,1.9,-0.9,3.5,·,
O=C(Nc1ccc(-c2cnco2)cc1)c1ccc(Cl)cc1,-2.3,-4.3,6.9,i,-5.1,3.1,-3.3,-10.2,
CCO/C(C)=N/Oc1cc(OC)cc(OC)c1,·,·,·,·,-21.6,1.9,4.8,13.1,
O=C(Nc1ccccc1N1CCOCC1)c1cc(-c2ccco2)nc2ccccc12,32.3,27.7,81.5*,i,·,-16.0,-4.5,·,eIF4H inh retest=56.2*;PABP FP inh retest=25.0
O=C(COC(=O)c1cc[n+]([O-])cc1)Nc1ccc(F)c([N+](=O)[O-])c1,4.4,6.1,-2.4,i,35.4,3.3,5.5,·,
COc1ccc(OCCN2CCN(C(=O)c3ccc(OC(F)F)c(OC)c3)CC2)cc1,0.0,-0.5,8.5,i,17.4,-0.4,-17.3,5.7,
c1ccc(C[C@H]2CNCCN2CC2CCCCC2)cc1,·,14.1,·,i,7.0,5.8,3.7,-19.3,
CN(CCc1ccccc1)C(=O)c1cccc(NC(=O)Cc2cccc(NC(=O)C3CCN(C(=O)C4CCCCC4)CC3)c2)c1,·,·,·,·,-3.0,2.9,-11.1,-20.2,
COc1ccc(NC(=S)NN2CCN(C)CC2)cc1OC,8.1,1.7,-3.6,i,·,0.9,4.9,-9.7,
COc1cc(NC(=O)Cn2nnc(-c3ccncc3)n2)cc(OC)c1,-4.9,·,-2.3,i,·,3.4,-5.1,0.8,
Cn1cccc1/C=C1\SC(=O)N(c2ccccc2)C1=O,-23.7,3.5,-15.9,i,-292.3,4.4,4.0,-3.6,
Cc1nnc(NC(=O)c2cccc(S(=O)(=O)N3CCOCC3)c2)s1,4.6,·,-2.0,i,·,-0.2,1.0,-11.2,

# (continued)
SMILES,PABP FP inh,CSC inhib,eIF4H inh,Rce1 inh,Env fusion inh,MT1-MMP act inh,MT1-MMP act inh RFP,Yeast UUG start,others
CN(Cc1ccccc1)C(=O)Cn1c(=O)c2cccn2c2cccnc21,9.5,-1.9,-16.2,i,14.8,2.2,1.8,-6.3,
COc1ccc(C(CNc2ncnc3sc(C)c(C)c23)N(C)C)cc1 (stereo not drawn),-10.9,-7.6,-1.7,i,10.2,-7.1,-4.6,-15.1,
CC(=S)/C=C1\Sc2ccccc2N1C,4.3,2.3,2.9,i,·,9.8,10.6,-25.9,
O=C(O)c1ccc(N2C(=O)C3C4c5ccccc5C(Br)(c5ccccc54)C3C2=O)cc1 (stereo not drawn),1.5,-14.6,1.1,i,11.2,-8.4,0.5,·,
N#CC1=C(SCc2ccccc2)NC(=O)CC1c1cccc(O)c1 (stereo not drawn),-0.3,1.5,2.1,i,10.9,1.4,3.7,-19.2,
CC(C)C(=O)NC(NC1CCS(=O)(=O)C1)C(Cl)(Cl)Cl (stereo not drawn),-6.4,-1.4,-7.1,i,13.7,-3.1,2.4,·,
O=S1(=O)N=C(N2CCCc3ccccc32)c2ccccc21,1.3,7.5,2.4,i,·,3.5,-0.5,-18.6,
O=C(NC1CC1)c1sccc1-n1cccc1,-7.9,-11.1,-8.2,i,-51.3,-2.7,2.7,-18.2,
O=S(=O)(c1ccc(-c2n[nH]c(=S)o2)cc1)N1CCCC1,6.9,-2.9,-2.7,i,7.3,-1.2,1.6,-24.9,
CC(NC(=O)c1cc(S(=O)(=O)N(C)C)ccc1Cl)C1CC2CCC1C2 (stereo not drawn),1.0,2.4,-13.0,·,10.8,-0.2,0.1,-2.9,
CCOC(=O)C1(CC)NC(c2ccc(N(C)C)cc2)C2C(=O)N(C)C(=O)C21 (stereo not drawn),0.2,22.1,-5.7,i,19.4,6.9,1.7,-15.8,
Cn1cc(S(=O)(=O)NCc2ccco2)c(=O)n(C)c1=O,-0.3,5.7,-11.1,i,4.8,-3.6,4.6,-10.3,
CC(C)c1nc(CNC(=O)C2CCC(=O)N(CCc3ccc(Cl)cc3)C2)no1 (stereo not drawn),6.2,-6.2,-8.6,i,·,3.5,1.6,-11.1,
O=C(Cc1ccc(-n2c(=O)c3sccc3n(CC(=O)Nc3ccccc3F)c2=O)cc1)NCc1ccco1,32.1,-11.8,-1.1,i,6.9,6.2,-0.9,·,
O=C(COC(=O)c1ccc[n+]([O-])c1)Nc1c(Br)cc([N+](=O)[O-])cc1Br,-1.7,8.1,-4.7,i,·,·,·,·,
CCN(CC)CCC#CC(O)(c1ccccc1)C1CCCCC1 (stereo not drawn),-4.3,·,1.4,i,-0.8,-1.2,4.7,·,
